High-throughput results (PubChem BioAssay)
VACV E9 pol inh: vaccinia E9 polymerase processive synthesis inhibition; AID 493162; actives 0.94% (n = 46,000); in vitro processive DNA synthesis, absorbance read-out; active compounds read low; some inactives read as strong as hits; normalized absorbance, % (concentration not given with the values);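 active = replicate mean up to 90% and picked by the depositor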;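 also: 100% = median of the test wells of a plate; 100 nL library stock went into each well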
An asterisk follows results filed as active; & = joins results of further samples; ! = a repeat was not active. The list is partial; rates above refer to the full screens.

SMILES	VACV E9 pol inh
COc1ccc(/C=C/C(=O)N2c3ccccc3CC2C)cc1OC (stereo unspecified)	79
CCc1cccc2c(C#N)cn(CC(=O)NC3CCCC3)c12	104
O=C(CCC(=O)c1cccs1)NCc1ccc(Cl)cc1	103
Cc1ncc(CN2CCOCC2)c(N)n1	101
CCN(CC)c1ccc(O)c(/C=N/N2C(=O)/C(=C/c3ccco3)N=C2c2ccccc2)c1	101
COc1ccc(CC(=O)NN2C(=O)CSCC2=O)cc1OC	86
Cc1ccccc1Nc1nc(CCl)cs1	101
Cc1cc(C(C)(C)CC(C)(C)C)ccc1OCCOCC[N+](C)(C)Cc1ccccc1	100
Cn1c(=O)c2c(nc(SCC(=O)NC3CCCCC3)n2C)n(C)c1=O	105
CCC(=O)NC(C)c1nc2ccccc2n1Cc1ccccc1F (stereo unspecified)	100
c1csc(CN2CCN(Cc3cccs3)C2c2cccs2)c1	100
CCCNC(=O)C1CCCN(c2nc3c(C)cc(C)cc3s2)C1 (stereo unspecified)	102
COC(=O)CNS(=O)(=O)c1ccc(I)cc1	98
O=C(c1ccccc1)C1Oc2ccccc2OC1O (stereo unspecified)	94
O=C(Cc1nc2ccccc2n1C(=O)c1ccccc1)N1CCOCC1	101
CCOC(=O)c1ccc2c(c1)sc1nc(-c3ccc(C)cc3C)cn12	104
CC(=O)Nc1cc(Cl)ccc1Nc1ccccc1	102
O=c1[nH]nc(N2CCSCC2)[nH]1	96
CCc1cccc(NC(=S)N(C)Cc2cn(C)c3ccccc23)c1	106
COc1cc(/C=c2\sc3nc(-c4ccccc4C)nn3c2=O)cc(Br)c1OC(C)=O	100
CCOc1ccc(S(=O)(=O)N2CCC(C)CC2)cc1	99
CN1C(=O)/C(=C/c2cn(CC(=O)N3CCOCC3)c3ccccc23)C(=O)NC1=S	100
CCC1(C)CC(CCN)(c2ccc(F)cc2)CCO1 (stereo unspecified)	105
COc1ccc(-c2cc(C(=O)N3CCC4(CC3)OCCO4)[nH]n2)cc1	101
CCOc1ccc2nc(NC(=O)COc3ccccc3)sc2c1	100

The list continues.
SMILES	VACV E9 pol inh
CC(=O)OC(C(=O)Nc1nc2ccccc2s1)c1ccccc1 (stereo unspecified)	100
COc1ccc(/C=C/C(=O)N2c3ccccc3Sc3ccccc32)c(OC)c1	100
O/N=C/c1cccn1-c1ccccc1F	112
Cc1cc(/C=C2/SC(=O)N(C(C)C)C2=O)c(C)n1-c1ccncc1	101
NOCc1ccccc1C(F)(F)F	118
CC1=NN(C(=O)c2ccccc2)C(O)(c2ccc(Cl)cc2)C1 (stereo unspecified)	100
O=C(O)c1ccccc1Nc1cccc(C(F)(F)F)c1	85*!
CCOC(=O)C1CCN(C(=O)/C(=C/c2ccc(F)cc2)c2ccsc2)CC1	91
S=C(NCCc1ccccc1)NCC(c1cccnc1)N1CCOCC1 (stereo unspecified)	98
COC(=O)c1ccc(C(=O)OC)c(NC(=S)N2CCCCC2C)c1 (stereo unspecified)	102
COc1ccc(OCCNC(=O)c2nccnc2C(=O)O)cc1	98
N=C1CCCN1CC(=O)c1ccc(Br)cc1	100
O=C(c1c[nH]c2ccccc12)N1CCN(c2ccccc2)CC1	100
N#Cc1ccc(COC(=O)CCC2CCCC2)cc1	103
CC[C@@H]1/C=C/C=C/C[C@H](C)[C@@H](O)[C@](C)(O)C(=O)[C@H](C)[C@@H](O)[C@H](C)C(=O)[C@H](C)[C@@H](O)[C@H](C)/C=C/C(=O)O[C@H]2[C@@H](C)[C@@H](CC1)O[C@@]1(CC[C@@H](C)[C@@H](C[C@H](C)O)O1)[C@@H]2C	100&99
O=C(Nc1ccc(S(=O)(=O)N2CCCCC2c2cccnc2)cc1)c1ccc(Cl)cc1 (stereo unspecified)	92
Clc1ccc(OCCBr)c(Cl)c1	103
CC(C)c1ccc(NC(=O)CN2N=C(c3ccc(Cl)cc3)CCC2=O)cc1	102
CCN(CC)S(=O)(=O)c1cccc2cc(C(=O)O)c(O)cc12	99
Cn1c2ccc(N=Cc3ccccc3O)cc2c2nc3ccccc3nc21	98
Cc1cc(C)c(-c2csc(N)n2)c(C)c1	93
CCOC(=O)c1[nH]c(C)c(C(=O)NCCc2ccc(OC)c(OC)c2)c1CC	108
CCCCc1cc(=O)oc2cc(OCC(N)=O)ccc12	100
CCC(=O)N(C)c1nc(-c2ccc(Cl)s2)cs1	103
CCN(CC)C(=O)NC(=O)c1c(C)cc(Cl)nc1Cl	102

The list goes on.
SMILES	VACV E9 pol inh
Cn1c(=O)c(=O)n(C)c2cc(S(=O)(=O)CCC(=O)N3CCCc4ccccc43)ccc21	96
CCC(=O)Nc1ccc(C#N)cc1	98
CSc1nc2ccccc2c(=O)n1CC(=O)C(C)(C)C	99
O=C1CSC(=NC(=O)C2CC2)N1	101
O=C(O)CCC(=O)N1CCOc2ccccc21	98
CC1CCN(Cn2nc(-c3ccccc3)oc2=S)CC1	100
Cc1ccc(S(=O)(=O)NC(=O)Oc2ccccc2N2CCOCC2)cc1	107
Cc1oc2cc(O)ccc2c(=O)c1Oc1ccc(Cl)cc1	106
Cc1onc(-c2c(Cl)cccc2Cl)c1C(=O)N=C(N)N1CCCC1	102
O=C(O)c1ccccc1OCCOc1ccccc1	86
Nc1ccc(N2CCCCC2)cc1N1CCCCC1	95
Cc1cc(=O)oc2cc(OC(=O)/C=C/c3ccccc3)ccc12	100
COc1ccc(COCC(O)CN2CCCCC2)cc1OC (stereo unspecified)	108
CN1C(=O)C(C)(C)c2cc(S(=O)(=O)N3CCCC3C(=O)NCc3ccc(F)cc3)ccc21 (stereo unspecified)	105
Cc1ccc(Oc2cc(C)nc(-c3ccccc3O)n2)cc1	103
N#CC1=C(CBr)NC(CBr)=C(C#N)C12CCCCC2	106
COc1cc2c(cc1OC)C1CN3CCc4cc(OC)c(OC)cc4C3CN1CC2 (stereo unspecified)	100
O=C(NCc1ccccc1)c1ccc2nc3ccccc3c(=O)n2c1	94
COC(=O)c1c(NC(=O)c2ccc(C)cc2)sc(C)c1C	100
CCOC(=O)c1coc2c(F)c(F)c(F)cc2c1=O	87
Cc1ccc2nc(C(F)(F)F)cc(N3CCN(/C=C(/C#N)S(=O)(=O)c4ccccn4)CC3)c2c1	104
Cc1nn(Cc2ccc(C(=O)Sc3ccc(C(F)(F)F)cn3)o2)c(C)c1Br	95
Oc1ccc(N=Cc2ccc(F)c(F)c2)cc1N=Cc1ccc(F)c(F)c1	101
CC1=C(C(=O)N(C)C)C(c2cccs2)NC(=O)N1 (stereo unspecified)	92
Cc1[nH]nc2c1C(C(C)C)C(C#N)=C(N)O2 (stereo unspecified)	100

(listing goes on)
SMILES	VACV E9 pol inh
Cc1ccc(C2C=C(c3ccccc3)NC(=O)C2C#N)cc1 (stereo unspecified)	101
O=C(O)/C=C\C(=O)N1CCN(Cc2ccc3c(c2)OCO3)CC1	100
O=C(CCN1Cc2ccccc2C1)c1ccc2c(c1)OCCO2	101
O=C(CCCN1C(=O)c2cccnc2C1=O)Nc1ccc(C(F)(F)F)cc1	91
Nc1sc2c(c1C(=O)NCCc1ccccc1)CCC2	96
O=C(Cc1ccc(CC(=O)c2ccccc2)cc1)c1ccccc1	104
O=C1CC(Cc2ccccc2)C(=O)N1c1cccc(C(F)(F)F)c1 (stereo unspecified)	99
Cc1ccc(S(=O)(=O)C2(C(=O)N3CCN(c4ccccc4)CC3)CC2)cc1	104
O=C(O)c1ccccc1C(=O)NCCc1ccccc1	108
CCOC(=O)c1ccccc1NC(=O)Cn1c(-c2cccs2)noc1=O	102
FC(F)(F)c1cc(-c2ccc3ccccc3c2)nn1C(=S)N1CCOCC1	100
COc1ccc(-c2cn3c(C)c(C(=O)N4CCc5ccccc54)sc3n2)cc1	101
CCOC(=O)C1=C(C)N2CCN=C2S1	100
Cc1nc2ccccc2c2oc(C(=O)N3CCC(C)CC3)cc12	97
COc1ccc(/C=C(/NC(=O)c2ccccc2)C(=O)N2CC3(C)CC2CC(C)(C)C3)cc1 (stereo unspecified)	100
Cc1nn(CCCC(=O)O)c(=O)c2c1sc1ccccc12	97
Cc1ccc(CCP(=O)(O)CCc2ccc(C)nc2)cn1	99
CCOC(=O)N1CCC(Nc2nc3ccc(Cl)cc3n3cnnc23)CC1	102
Cc1cc(NC2CCCCC2)nc2ccc(N)cc12	102
CC(C)(C)Sc1nc2ccccc2[nH]c1=S	100
CCOC(=O)C1=C(C(F)(F)F)Nc2ncnn2C1c1ccc(F)cc1 (stereo unspecified)	99
CCOc1ccc(NC(=O)CC2CC3CCC2C3)cc1 (stereo unspecified)	105
Nc1ccc(C(=O)c2ccc3c(c2)OCCO3)cc1N	96
COc1ccccc1C1CCN(CCCOc2ccc(Cl)cc2)CC1	101
COc1ccc(S(=O)(=O)N2CCCC2C(=O)Nc2nc3c(s2)CCCC3)cc1 (stereo unspecified)	105

A section of the results above, as a working copy:
SMILES	VACV E9 pol inh
COc1ccccc1C1CCN(CCCOc2ccc(Cl)cc2)CC1	101
COc1ccc(S(=O)(=O)N2CCCC2C(=O)Nc2nc3c(s2)CCCC3)cc1 (stereo unspecified)	105

Following part.
SMILES	VACV E9 pol inh
Cc1cccc(N=Cc2c(O)n(-c3ccccc3)c(=O)c3ccccc23)c1	100
CC(C)N(C(=O)CSc1nnc(-c2ccccc2)o1)c1ccccc1	101
COc1ccc(-c2cc(=O)c3ccccc3s2)cc1	99
CCOC(=O)c1cnc2ccc(OCC)cc2c1NCc1ccccc1	99
CC1CC(C)CN(Cc2cc(Cl)c(O)c(Cl)c2)C1 (stereo unspecified)	114
CCOC(=O)N1CCC(NC(=O)c2cccs2)CC1	102
CC(=O)Nc1cccc(C(=O)Oc2cccc(C)c2)c1O	101
O=C(CN1C(=O)COc2ccccc21)NCc1ccccn1	121
CC(C)CC1(C)N=C(c2ccccc2)C(=S)N1 (stereo unspecified)	102
CC(C)c1ccc(C(=O)CCN(C)C)cc1	100
CS(=O)(=O)N1CCN=C1SCc1ccc(C(F)(F)F)cc1	74
CCOC(=O)CCCCCCCCCCCCC1C=CCC1 (stereo unspecified)	101
CC(C)Cn1c(=O)c(-[n+]2ccccc2)c([O-])c2ccccc21	98
CCN(CC)S(=O)(=O)c1ccc2oc(C(=O)Nc3cccc(Cl)c3)c(C)c2c1	106
CSc1ncc(C(=O)NCc2ccccc2)c(C)n1	99
CC(C)(C)Oc1ccc(CC(CO)NC(=O)OCC2c3ccccc3-c3ccccc32)cc1 (stereo unspecified)	111
c1nc(NC2CCCC2)c2c3c(sc2n1)CCC3	99
CCS(=O)(=O)NCCc1csc(C)n1	94
CC(c1ccccc1)n1cnc2ccccc2c1=O (stereo unspecified)	98

Of the compounds above, these contain a Cl atom:
SMILES	VACV E9 pol inh
O=C(CCC(=O)c1cccs1)NCc1ccc(Cl)cc1	103
Cc1ccccc1Nc1nc(CCl)cs1	101
CC(=O)Nc1cc(Cl)ccc1Nc1ccccc1	102
CC1=NN(C(=O)c2ccccc2)C(O)(c2ccc(Cl)cc2)C1 (stereo unspecified)	100
O=C(Nc1ccc(S(=O)(=O)N2CCCCC2c2cccnc2)cc1)c1ccc(Cl)cc1 (stereo unspecified)	92
Clc1ccc(OCCBr)c(Cl)c1	103
CC(C)c1ccc(NC(=O)CN2N=C(c3ccc(Cl)cc3)CCC2=O)cc1	102
CCC(=O)N(C)c1nc(-c2ccc(Cl)s2)cs1	103
CCN(CC)C(=O)NC(=O)c1c(C)cc(Cl)nc1Cl	102
Cc1oc2cc(O)ccc2c(=O)c1Oc1ccc(Cl)cc1	106
Cc1onc(-c2c(Cl)cccc2Cl)c1C(=O)N=C(N)N1CCCC1	102
CCOC(=O)N1CCC(Nc2nc3ccc(Cl)cc3n3cnnc23)CC1	102
COc1ccccc1C1CCN(CCCOc2ccc(Cl)cc2)CC1	101
CC1CC(C)CN(Cc2cc(Cl)c(O)c(Cl)c2)C1 (stereo unspecified)	114
CCN(CC)S(=O)(=O)c1ccc2oc(C(=O)Nc3cccc(Cl)c3)c(C)c2c1	106
